# nsP2pro inh: inhibitors of chikungunya virus nsP2 protease; Q8JUX6; FRET peptide cleavage, nsP2pro, fluorescence 1 h; Potency, µM (titrated, usually from 24.9 µM), for the others: top-dose activity change, negative = inhibition, most hits filed as inhibitors; hit rate 1.1% among 31,000; active means well fitted inhibition curve with a large enough effect; inconclusive means small, poorly fitted or top-dose-only effect; inactive means no such curve, though single readings can be large or run the other way; note: nearly all actives have a fitted effect of over 60% in size; a reference inhibitor and vehicle were the controls
# Target sequence (Q8JUX6 whole entry, looked up): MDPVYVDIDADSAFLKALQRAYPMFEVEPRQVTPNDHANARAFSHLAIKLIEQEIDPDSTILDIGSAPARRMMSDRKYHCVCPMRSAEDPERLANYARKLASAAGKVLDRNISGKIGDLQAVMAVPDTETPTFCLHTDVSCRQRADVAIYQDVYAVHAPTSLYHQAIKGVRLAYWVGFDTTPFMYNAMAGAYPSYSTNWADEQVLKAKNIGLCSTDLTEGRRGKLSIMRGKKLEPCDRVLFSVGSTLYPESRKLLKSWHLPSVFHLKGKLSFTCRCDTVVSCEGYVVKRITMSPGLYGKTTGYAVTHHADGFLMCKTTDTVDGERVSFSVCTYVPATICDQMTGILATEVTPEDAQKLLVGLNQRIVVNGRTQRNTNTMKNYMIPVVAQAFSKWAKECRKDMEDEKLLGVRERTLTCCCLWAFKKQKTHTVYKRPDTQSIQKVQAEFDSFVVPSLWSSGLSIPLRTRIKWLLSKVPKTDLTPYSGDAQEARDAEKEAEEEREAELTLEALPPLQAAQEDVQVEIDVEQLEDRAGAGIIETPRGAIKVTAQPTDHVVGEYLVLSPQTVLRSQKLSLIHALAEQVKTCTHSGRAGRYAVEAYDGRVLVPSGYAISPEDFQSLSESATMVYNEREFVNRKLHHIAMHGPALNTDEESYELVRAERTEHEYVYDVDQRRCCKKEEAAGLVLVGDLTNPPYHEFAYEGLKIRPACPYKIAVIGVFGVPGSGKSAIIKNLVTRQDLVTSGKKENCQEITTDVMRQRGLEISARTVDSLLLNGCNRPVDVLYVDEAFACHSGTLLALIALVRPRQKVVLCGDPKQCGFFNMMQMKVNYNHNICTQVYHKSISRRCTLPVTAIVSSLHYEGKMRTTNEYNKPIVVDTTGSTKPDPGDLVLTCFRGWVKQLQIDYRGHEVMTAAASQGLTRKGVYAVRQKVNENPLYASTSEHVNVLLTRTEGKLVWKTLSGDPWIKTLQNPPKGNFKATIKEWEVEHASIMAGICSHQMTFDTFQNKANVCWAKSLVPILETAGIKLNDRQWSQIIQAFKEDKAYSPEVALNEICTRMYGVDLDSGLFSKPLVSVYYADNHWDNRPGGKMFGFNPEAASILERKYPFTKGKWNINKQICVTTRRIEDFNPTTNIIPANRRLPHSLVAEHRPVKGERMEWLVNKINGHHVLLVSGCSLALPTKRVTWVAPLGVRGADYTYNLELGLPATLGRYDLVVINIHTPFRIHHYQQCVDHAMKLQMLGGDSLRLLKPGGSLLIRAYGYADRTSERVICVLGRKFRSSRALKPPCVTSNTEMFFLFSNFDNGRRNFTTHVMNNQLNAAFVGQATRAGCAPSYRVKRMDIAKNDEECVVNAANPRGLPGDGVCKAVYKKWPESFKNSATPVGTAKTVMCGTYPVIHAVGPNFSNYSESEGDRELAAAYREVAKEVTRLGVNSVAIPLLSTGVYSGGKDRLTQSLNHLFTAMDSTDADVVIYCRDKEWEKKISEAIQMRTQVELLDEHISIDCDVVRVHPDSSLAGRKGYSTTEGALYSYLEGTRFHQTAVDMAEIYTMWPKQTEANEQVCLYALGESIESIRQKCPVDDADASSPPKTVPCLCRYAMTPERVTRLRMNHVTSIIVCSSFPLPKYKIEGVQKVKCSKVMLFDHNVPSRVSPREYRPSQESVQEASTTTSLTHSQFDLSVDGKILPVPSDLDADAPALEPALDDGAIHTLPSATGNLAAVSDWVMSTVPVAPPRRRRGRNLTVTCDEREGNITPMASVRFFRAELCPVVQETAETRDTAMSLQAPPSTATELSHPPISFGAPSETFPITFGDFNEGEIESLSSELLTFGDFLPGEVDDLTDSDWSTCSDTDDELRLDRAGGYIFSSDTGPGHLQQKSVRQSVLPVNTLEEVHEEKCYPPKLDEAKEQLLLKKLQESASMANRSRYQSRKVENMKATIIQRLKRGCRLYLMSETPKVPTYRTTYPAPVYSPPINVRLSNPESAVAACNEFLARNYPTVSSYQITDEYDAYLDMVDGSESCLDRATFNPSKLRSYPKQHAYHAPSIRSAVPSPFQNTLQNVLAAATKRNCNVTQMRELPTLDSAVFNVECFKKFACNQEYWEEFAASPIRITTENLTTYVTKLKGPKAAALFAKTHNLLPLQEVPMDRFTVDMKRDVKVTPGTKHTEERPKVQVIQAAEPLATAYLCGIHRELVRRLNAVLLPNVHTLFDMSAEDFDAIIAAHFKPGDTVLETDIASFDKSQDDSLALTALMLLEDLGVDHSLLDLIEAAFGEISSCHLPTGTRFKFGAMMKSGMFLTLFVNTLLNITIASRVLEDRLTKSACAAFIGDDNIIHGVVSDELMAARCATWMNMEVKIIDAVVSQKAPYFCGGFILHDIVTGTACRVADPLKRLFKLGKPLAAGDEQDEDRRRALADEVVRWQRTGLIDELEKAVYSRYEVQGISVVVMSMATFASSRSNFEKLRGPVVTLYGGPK
# An asterisk follows results filed as active; i = inactive; ? = inconclusive; & = joins results of further samples; [ ] = remark or other dose. % is set by controls: 0 for no effect and ±100 for the full control effect; potency is the fitted concentration of half-maximal effect. This is a subset. The share of hits here may be higher or lower than overall.
SMILES,nsP2pro inh
CN(C)c1ccc(C2Nc3ccc4ccccc4c3C3=C2C(=O)CC(C)(C)C3)cc1Br (configuration not stated),2%
Cc1cc(C)n2ncc(C(=O)Nc3ccc(C#N)cc3)c2n1,i
Clc1ccc(-c2nnn3c2nc(NCc2ccc4c(c2)OCO4)c2ccccc23)cc1,-20%
Cc1sc(C)c(C(=O)NC2(c3ccc(C(=O)O)cc3)CC2)c1Cc1ccc(C(F)(F)F)cc1,-24%
O=C(Nc1ccc(Cl)c(Cl)c1)N1CCC(c2ccccc2)C1 (configuration not stated),-15%
O=C(NCc1ccc(F)cc1)c1ccc2nnc(CC3CC3)n2c1,i
CCC(CC)c1cc([C@H]2CN3CC[C@H]2C[C@@H]3CNC(=O)C2CC2)nc(-c2ccncc2)n1,25%[39.2 µM]
O=C(Nc1ccc([N+](=O)[O-])cc1Cl)c1cc(Cl)ccc1O,-1%[10 µM]
COc1ccnc(NC(=S)N2CCN(c3ncc(C(F)(F)F)cc3Cl)CC2)c1,1%&-18%
Cc1cc(C)cc(Nc2nc(C)cc(=O)n2CC(=O)Nc2cccc(C(F)(F)F)c2)c1,4%
C=C1C(O)C[C@@H]2C(C(=O)O)=CO[C@@H](O[C@@H]3O[C@H](CO)[C@@H](O)[C@H](O)[C@H]3OC(=O)c3ccc(O)cc3)[C@H]12 (some centres not stated),2%[10 µM]
CC(=O)NC1C(OC2CCC3(C)C(CCC4(C)C3CC=C3C5CC(C)(C)CCC5(C(=O)O)C(O)CC34C)C2(C)C)OC(CO)C(O)C1O (configuration not stated),9%[10 µM]
CC(=O)c1ccc(NC(=O)CSc2nc(-c3cccc(F)c3)nc3c2c(=O)n(C)c(=O)n3C)cc1,-8%
COc1ccccc1C(C)N(C)C(=O)c1cccc(CCC(C)(C)O)c1 (configuration not stated),i
CC1(C)CCC(C)(C)c2cc([S+](=O)([O-])N3CCN([S+](=O)([O-])c4c(F)cccc4F)CC3)ccc21,-5%
O=C(NCCCn1ccnc1)c1nn2c(C(F)(F)F)cc(-c3ccc(Br)cc3)nc2c1Cl,i
C/C=C1\[C@H](O[C@@H]2O[C@H](CO)[C@@H](O)[C@H](O)[C@H]2O)OC=C(C(=O)OC)[C@H]1CC(=O)O,-2%[10 µM]
C/C=C1/CN2CC[C@]34C(=Nc5ccc(OC)cc53)C2C[C@@H]1C4(CO)C(=O)OC (some centres not stated),-10%
O=C(Nc1ccc(N(Cc2ccsc2)C(=O)Cn2nnc3ccccc32)cc1)C1CC1,12%
CCC(C)(CCN1CCOCC1)N(Cc1cc2ccccc2n(C)c1=O)C(=O)C1CCCCC1 (configuration not stated),1%
CCCCc1ccc(NC(C)=O)c(C)c1,-22%
COc1ccccc1C(=O)Nc1ccc(C(=O)OCc2cc(=O)n3c4c(sc3n2)CCCC4)cc1,-18%
CC1(C)C=Cc2c(ccc3c2N=C2C(C)(C)[C@@H]4C[C@]56CCCN5C(=O)[C@@]4(C[C@]23O)NC6=O)O1,-6%[10 µM]
CN1C2CCC(C)(C)C1CC(OC(=O)C(O)(c1cccs1)c1cccs1)C2 (configuration not stated),-1%
CN(c1ccc(NC(=O)Nc2ccc(OC(F)(F)F)cc2)cc1)c1ccnc(Nc2cccc(S(N)(=O)=O)c2)n1,0%
SMILES,nsP2pro inh
CC(C)(O)/C=C/CC(C)(O)C1C(O)CC2(C)C3CCC4C(C)(C)C(=O)CCC4(C)C3CCC12C (configuration not stated),-14%[10 µM]
O=S(=O)(Nc1ccc2ccccc2c1)c1ccc(NCc2cccc(Cl)c2O)cc1,4%
COc1ccc(-c2onc(C)c2C)cc1S(=O)(=O)N1CCc2ccccc21,-20%
COc1cccc(CNC(=O)C2CCC(CNS(=O)(=O)c3cccs3)CC2)c1 (configuration not stated),-20%
Cc1nc(C(=O)N2CCn3nc(Cc4ccccc4)cc3C2)cs1,i
O=C(CCC[C@@H]1[C@H]2CCCN3CCC[C@@H](CN1Cc1ccccc1)[C@@H]23)Nc1cccnc1,-13%
COc1ccc(C(O)C(C)OC2OC(CO)C(O)C(O)C2O)cc1 (configuration not stated),24%
CCc1noc(-c2cn(C3CCCN(C(=O)COc4cccc(C)c4)C3)nn2)n1 (configuration not stated),i
COc1ccc(NC(=O)Cn2cnc3sc(C)c(S(=O)(=O)N4CCN(C)CC4)c3c2=O)cc1Cl,14%
O=NN1CCCC1c1cccnc1 (configuration not stated),-11%
Cc1nn(-c2ccccn2)c(C)c1[C@@H]1C=C[C@@H](NC(=O)CCCC(=O)O)C1,-5%[39.2 µM]
CN(C)CCNC(=O)C1CCN(c2nc3ccccc3[nH]2)CC1,8%
Cc1ccc(Cl)cc1NS(=O)(=O)c1cc2c(cc1Cl)CCC(=O)N2,-2%
c1ccc(N2CCN(c3ncnc4c3nc3n4CCCC3)CC2)cc1,-16%
O=C(NCCCN1CCCCCC1)c1ccc2c(c1)sc1nc(-c3ccccc3)cn12,134%[activator]
COc1ccc(NC(=O)c2cc3c(s2)CN(C2CCCC2)C3)c(OC)c1,i
COc1cccc(NC(=O)C(Cc2ccccc2)N2Cc3ccccc3C2=O)c1 (configuration not stated),-14%
COc1ccc2nc3n[nH]c(C)c3c(NCCOCCO)c2c1,1%
O=C1CCCC2=C1C(c1cccnc1)N=C(Nc1nc3ccccc3o1)N2 (configuration not stated),1%
Cc1ccc(CNC(=O)c2c(-c3ccc(F)cc3F)noc2C)o1,?
COc1ccc(CNC(=O)Cn2ncn3nc(-c4cccs4)cc3c2=O)cc1,-15%
C[S+](=O)([O-])N1CC2(Cc3ccccc3N(C(=O)Cc3ccc(F)cc3)C2)C1,1%
COc1cccc(-c2nc3c(C#N)c[nH]n3c2NC2CCCC2)c1OC,-8%
Cc1cc(NS(=O)(=O)c2ccc(NC(=O)Cc3ccc4ccccc4c3)cc2)no1,i
COc1ccc(-c2cc(C(C)=O)c(C)n2CCC(=O)NC2CCCCC2)cc1,-16%

# 4 entries from above, reformatted:
molecule: c1ccc(N2CCN(c3ncnc4c3nc3n4CCCC3)CC2)cc1
- nsP2pro inh: -16%

molecule: O=C(NCCCN1CCCCCC1)c1ccc2c(c1)sc1nc(-c3ccccc3)cn12
- nsP2pro inh: 134%[activator]

molecule: COc1ccc(-c2cc(C(C)=O)c(C)n2CCC(=O)NC2CCCCC2)cc1
- nsP2pro inh: -16%

molecule: C[S+](=O)([O-])N1CC2(Cc3ccccc3N(C(=O)Cc3ccc(F)cc3)C2)C1
- nsP2pro inh: 1%

# The main list resumes with the two entries that preceded the break.
SMILES,nsP2pro inh
Cc1cc(NS(=O)(=O)c2ccc(NC(=O)Cc3ccc4ccccc4c3)cc2)no1,i
COc1ccc(-c2cc(C(C)=O)c(C)n2CCC(=O)NC2CCCCC2)cc1,-16%
O=C(O)C[C@@H](NC(=O)c1cc(-c2ccc(-c3ccncc3)cc2)cs1)c1ccccc1,64%[activator]
Cc1cccc(NC(=O)N[C@@H]2N=C(c3ccccc3)c3ccccc3N(C)C2=O)c1,?
Cc1ccc2c(CN3CCN(C(=O)c4ccc(Br)cc4)CC3)cc(=O)oc2c1,-14%
COc1cccc(CNC(=O)c2nn(C)c3c2CSc2ccccc2-3)c1,-12%
CN(Cc1ccccc1)C(=O)[C@H]1O[C@H](CCN2CCOCC2)CC[C@@H]1O,-2%[39.2 µM]
COC(=O)c1cc(OC)cc(OC)c1C(=O)c1c(OC)cc2c(c1O)C1CCC(O)C(C)(O2)O1 (configuration not stated),-2%[10 µM]
Cc1ccc(-c2nnc3c4ccccc4c(C)nn23)cc1NC(=O)c1ccccc1Cl,-19%
OCCn1cc(-c2cnc3nnn(Cc4ccc5ncccc5c4)c3n2)cn1,18%
CC(C)CCN1CCC2(C1)C(=O)N(c1ccccc1)c1ccccc12 (configuration not stated),-2%
O=C(O)c1cc2c(s1)CN(C1CCCC1)C2,i
CCOc1ccc(CCNC(=O)c2cc3cnccc3n2Cc2cccc(C)n2)cc1OCC,0%
O=C(O)c1ccc(CC2CCN(Cc3ccccn3)C2)cc1 (configuration not stated),-2%
CC(CN(C)C)CN1c2ccccc2CCc2ccccc21 (configuration not stated),-2%
CCN(CC)c1ccc(NC(=O)c2cccn2-c2nnc(N3CCCCC3)s2)c(C)c1,-31%
O=C(NCc1ccccc1Cl)c1cnc(N2CCCCC2)c2ccccc12,?
CCNC(=O)N[C@H]1CC[C@]2(C)CCC([C@H](C)C(=O)N(C)CCC#N)[C@H](O)[C@H]2[C@@H]1C (some centres not stated),-2%[39.2 µM]
CC(O)(c1ccccc1)C(Cc1ccc(Cl)cc1)n1cncn1 (configuration not stated),9%
CCOC(=O)c1noc2ncn(CC(=O)Nc3cccc(C(F)(F)F)c3)c(=O)c12,-26%
CCC(Sc1nc2c(sc3ccccc32)c(=O)n1CCc1ccc(OC)c(OC)c1)C(=O)N(CC)CC (configuration not stated),-13%
COCc1nc(C2CC(NC(=O)c3nn(C)c4c3CCCC4)C2)cc(=O)[nH]1 (configuration not stated),3%
Cc1cccc(C)c1-n1c(SCC(=O)Nc2ccc(C(=O)O)cc2)nnc1-c1ccc([S+](=O)([O-])N2CCCC2)cc1,i
Cc1ccccc1OCC(=O)Nc1cc(-c2cccc(Br)c2)nn1-c1ccccc1,-18%
COc1ccc(N2CCN(c3cc(C)nc4nncn34)CC2)cc1,-20%
CCCCCOC(=O)Nc1nc(=O)n([C@@H]2O[C@H](C)[C@@H](O)[C@H]2O)cc1F,-16%&-3%
O=C(/C=C/c1ccccc1)O[C@@H]1[C@@H](CO)O[C@@](CO)(O[C@H]2O[C@H](CO)[C@@H](O)[C@H](O)[C@H]2O)[C@H]1O,38%[activator][10 µM]
SMILES,nsP2pro inh
NC(=O)c1cccnc1,?
COc1ccc(CCNC(=O)Cn2c(=O)c3cccn3c3ccccc32)cc1OC,-17%
CCOC(=O)C1CCN(C(=O)C(C)(C)NC(=O)Nc2cccc(OC)c2)CC1,-2%
O=C(O)c1ccc2c3c1cccc3c(=O)n1c3ccccc3nc21,-1%
Cc1ccc(-n2nccn2)c(C(=O)N2CCN(c3nc4cc(Cl)ccc4o3)CC[C@H]2C)c1,4%
Cc1ccc(C(C)C)c(OCC(=O)Nc2ccc(C(=O)OC3CCCCC3)cc2)c1,-23%
CN(Cc1ccccc1)S(=O)(=O)c1ccc(F)c(C(=O)Nc2ccccc2C(F)(F)F)c1,-9%
Cc1cc(C)cc(NC(=O)CSCn2nnc3c(=O)[nH]c(Cc4ccc(F)cc4)nc32)c1,-14%
Cc1cc(C)cc(OCC(=O)NCC2(N(C)C)CCCCC2)c1,-26%
CC(=O)O[C@H]1C[C@@](O)(C(C)C)[C@@H]2[C@@H](OC(=O)c3ccc(O)cc3)CC(C)=CC[C@@]12C,-1%[10 µM]
O=C(O)CC[C@@H](O)C(=O)O,-15%
COc1ccc(CNc2nc(N3CCCC3CO)ncc2C(=O)NCc2ncccn2)cc1Cl (configuration not stated),1%
CC(=O)O[C@H]1CC(C)(C)CC2[C@]13CO[C@@]21CCC2[C@@]4(C)CC[C@H](O[C@@H]5OC[C@H](O[C@@H]6O[C@H](CO)[C@@H](O)[C@H](O)[C@H]6O[C@@H]6OC[C@@H](O[C@@H]7O[C@H](CO)[C@@H](O)[C@H](O)[C@H]7O)[C@H](O)[C@H]6O)[C@H](O)[C@H]5O[C@@H]5O[C@H](CO)[C@@H](O)[C@H](O)[C@H]5O)[C@@](C)(CO)C4CC[C@@]2(C)[C@]1(C)C[C@H]3O (some centres not stated),10%[5.1 µM]
C=CCCCC(=O)Nc1ccc(NC(=O)C(C)(C)C)c(OC)c1,?
CC1(c2ccccc2)CCCN(C(=O)c2cc(-c3ccncc3)n[nH]2)C1 (configuration not stated),7%
COCCOCc1nc(C2CCCN2C(=O)c2ccccn2)no1 (configuration not stated),-5%
C[C@@H]1CN(C[C@@H]2CN(C(=O)c3ccc(Cl)o3)C[C@@H]2CO)C[C@H](C)O1,-4%
CC1CCN(S(=O)(=O)c2ccc3c(c2)N(CC(=O)N(C)Cc2ccccc2)C(=O)CO3)CC1,-16%
Cc1ccc(S(=O)(=O)Nc2ccccc2N2CCCCC2)s1,-14%
COc1cccc(-n2c(-c3ccco3)nc3c(cnn3-c3ccc(Cl)cc3)c2=O)c1,-25%
COCCCNC(=O)c1sc2nc(C)c(C(=O)Nc3ccc(Cl)cc3)c(-c3ccc(Br)cc3)c2c1N,-18%
O=C(c1cc2n(n1)CC(c1ccc(Cl)cc1)OC2)N1CCCCC1 (configuration not stated),2%
COc1ccc(CC(C)(C)NC[C@H](O)c2cc(O)cc3c2OCC(=O)N3)cc1,-5%
CCOC(=O)c1ccc(NC(=O)CCCn2c(=O)c3cccn3c3cccnc32)cc1,-18%
COc1ccc(NC(=O)c2cnn3c(-c4ccccc4)cc(C)nc23)cc1,-1%
SMILES,nsP2pro inh
COc1ccc(C2=CC(c3cc(Br)ccc3F)n3c(nc4ccccc43)N2)cc1 (configuration not stated),19%
COc1ccc2c(c1)[nH]c1c(C)nccc12,-7%
COCc1ncc(C)n1C1CCN(C(=O)Cc2cccc(F)c2)CC1,i
CCOc1ccc(C(=O)c2c(N)c(-c3nc(-c4ccc(OCC)cc4)cs3)c3ccccn23)cc1,-3%
COc1cccc(C2C(C#N)=C(NC(=O)NCc3ccccc3)Oc3ccc4ccccc4c32)c1 (configuration not stated),-10%
N=C1CCCN1Cc1[nH]c(=O)[nH]c(=O)c1Cl,-2%
CCc1ccc(CN2CCCC23Cc2ccccc2CNC3=O)s1 (configuration not stated),-10%
O=C(NCCc1nc2ccccc2n1CCO)C1CCCCC1,1%
Cc1cn(C)c(CC(=O)Nc2cccc(C#N)c2)c1C(=O)O,-12%

# 3 entries already listed, ordered by number of heavy atoms, rising.
SMILES,nsP2pro inh
COc1ccc2c(c1)[nH]c1c(C)nccc12,-7%
O=C(NCCc1nc2ccccc2n1CCO)C1CCCCC1,1%
CCOc1ccc(C(=O)c2c(N)c(-c3nc(-c4ccc(OCC)cc4)cs3)c3ccccn23)cc1,-3%

# Screens as filed in PubChem BioAssay.
